Screening results from PubChem.
MARV entry inh: inhibitors of Marburg virus binding or cell entry. Potency, µM (highest dose often 37.8 µM), without a hit: at the top dose activity change, negative = inhibition, most hits filed as inhibitors. Marburg virus pseudotyped entry inhibition, cell reporter; control for the full effect not named in the record; about a third of the inactives were read at about 46 µM. 300,000 tested, 1.8% active. AID 540276; active = well fitted inhibition curve with a large enough effect; inconclusive = small, poorly fitted or top-dose-only effect, or effect the other way; inactive = flat fitted curve, though single readings scatter; tested in HEK293 cells; about a fifth of its hits are not listed in these tables; also: % is scaled to controls: 0 for no effect and ±100 for the full control effect; luciferase read-out
RE007 growth inh: less growth of the S. pombe RE007 Vpr strain. S. pombe RE007 Vpr strain, BacTiter-Glo ATP luminescence, 24 h; control for the full effect not named in the record. AID 651644. Potency, µM (top dose mostly 92.2 µM), for inactives: top-dose activity change, negative = less growth. 360,000 tested, 0.21% active; active = well fitted falling curve with a large enough effect; inconclusive = small, poorly fitted or top-dose-only effect; inactive = no such curve, though single readings can be large or run the other way;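 also: % is scaled to controls: 0 for no effect and ±100 for the full control effect; nearly all actives have a fitted effect of over 50% in size; the assay follows cell death caused by Vpr and the record does not say whether a fall means rescue or toxicity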
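Fission yeast strain RE007, carrying one chromosomally integrated HIV-1 vpr copy, was seeded at OD 0.01 in PMG+AL medium with 23 nL pinned compound. After 24 h at 30 °C and 99% humidity, viability was read by BacTiter-Glo luminescence.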
Cruzain noTriton: blocks cruzain activity in detergent-free assay; purified cruzain, Z-FR-AMC fluorescence, no detergent; 200,000 tested, 2.3% active; Potency, µM, for inactives: max response, negative = inhibition, hits mostly inhibitors; active = well fitted curve in the direction sought with a large enough effect; inconclusive = small, poorly fitted or top-dose-only effect, or another doubt; inactive = no such curve, though single readings can be large; an effect the other way counts as inactive or inconclusive;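 also: plate controls were enzyme without inhibitor for no effect and buffer without enzyme for full effect; nearly all actives have a fitted effect of over 40% in size; top concentration of the series not given in the record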
Target sequence (P25779 123-467 limits assumed): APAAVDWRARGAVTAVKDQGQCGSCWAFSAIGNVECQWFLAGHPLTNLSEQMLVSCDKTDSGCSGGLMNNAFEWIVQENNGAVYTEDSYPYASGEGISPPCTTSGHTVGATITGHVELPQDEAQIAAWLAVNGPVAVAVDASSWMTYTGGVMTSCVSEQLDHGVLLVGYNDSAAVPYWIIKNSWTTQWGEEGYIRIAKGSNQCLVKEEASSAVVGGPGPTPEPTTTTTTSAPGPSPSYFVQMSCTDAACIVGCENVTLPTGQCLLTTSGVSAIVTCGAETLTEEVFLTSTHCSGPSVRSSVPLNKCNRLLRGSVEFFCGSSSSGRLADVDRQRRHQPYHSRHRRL
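Detergent-free condition (0.00005% Triton X-100) in acetate buffer pH 5.5 with DTT. 1.5 nM enzyme and compound were pre-mixed 15 min, then 2 uM Z-FR-AMC substrate added; reaction progress from fluorescence change between first and third reads (60 s).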
SARS PLpro yeast: blocks SARS-CoV papain-like protease in a yeast assay; S. cerevisiae expressing SARS-CoV PLpro, growth rescue; control for the full effect not named in the record; Potency, µM (top dose mostly 32.9 µM), for the others: at the highest dose activity, positive = growth rescue; 330,000 tested, 0.19% active; AID 485353; also: 0% is about no effect; nearly all actives have a fitted effect of over 55% in size; growth read by luminescence after 48 h
Lassa entry inh: blocks Lassa virus binding to or entry into cells. Lassa virus pseudotype entry inhibition, cell reporter; control for the full effect not named in the record. Potency, µM (top dose mostly 37.9 µM), without a hit: at the top dose activity change, negative = inhibition, most hits filed as inhibitors. 300,000 tested, 1.2% active; active means well fitted inhibition curve with a large enough effect; inconclusive means small, poorly fitted or top-dose-only effect, or effect the other way; inactive means flat fitted curve, though single readings scatter; tested in HEK293 cells; also: % is scaled to controls: 0 for no effect and ±100 for the full control effect; nearly all actives have a fitted effect of over 50% in size; luciferase read-out
NS1 inh: influenza NS1 inhibition. S. cerevisiae slowed by influenza A NS1, growth recovery by OD600. Potency, µM (doses to about 46.1 µM), inactives show top-dose activity, positive = more growth. 270,000 tested, 0.4% active. AID 2326; also: actives are rising curves; nearly all actives have a fitted effect of over 50% in size
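S. cerevisiae expressing influenza A NS1, grown in glucose, washed, then diluted 1:100 into pH 6.0 -URA galactose medium with 23 nl compound. Growth recovery read as OD600; NS1-free strain serves as control.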
2A StopGo: FMDV 2A StopGo reporter, luciferase signal; AID 1159524; human cells with a luciferase reporter of 2A StopGo recoding; control for the full effect not named in the record; Potency, µM (doses to about 57.9 µM), for inactives: at the top dose signal change, negative = less light; 410,000 tested, 1.2% active; active = well fitted falling curve with a large enough effect; inconclusive = small, poorly fitted or top-dose-only effect; inactive = no such curve, though single readings can be large or run the other way; tested in HEK293T cells; also: % is scaled to controls: 0 for no effect and ±100 for the full control effect; nearly all actives have a fitted effect of over 45% in size; luciferase light after 4 h
Cruzain Triton: blocks cruzain activity in presence of Triton detergent; 200,000 tested, 0.43% active; Potency, µM, for the others: max response, negative = inhibition, hits mostly inhibitors; P25779; AID 1478; purified cruzain, Z-FR-AMC fluorescence, 0.01% Triton; active = well fitted curve in the direction sought with a large enough effect; inconclusive = small, poorly fitted or top-dose-only effect, or another doubt; inactive = no such curve, though single readings can be large; an effect the other way counts as inactive or inconclusive;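 also: plate controls were neutral wells for no effect and buffer without enzyme for full effect; nearly all actives have a fitted effect of over 40% in size; top concentration of the series not given in the record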
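Compounds were screened in titration against cruzain (1.5 nM) with 0.01% Triton X-100 to counter colloidal aggregation. Activity was the AMC fluorescence increase over 60 s after adding 2 uM Z-FR-AMC at pH 5.5.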
The depositor's hits bear a star; ? = inconclusive; . = not tested or not shown; & = joins results of further samples; [ ] = remark or other dose. Unless noted, calls follow the shape of the dose curve; as a rule, active means well fitted rising curve with a large enough effect; inconclusive means small, poorly fitted or top-dose-only effect; inactive means no such curve, though single readings can be large or run the other way. Potency is read from the fitted curve at half-maximal effect.

SMILES | MARV entry inh | RE007 growth inh | Cruzain noTriton | SARS PLpro yeast | Lassa entry inh | NS1 inh | 2A StopGo | Cruzain Triton
COc1ccc(CCNC(=O)Cn2ccc3c(OC)cccc3c2=O)cc1OC | . | 7% | . | 0% | . | -3% | -19% | .
CC12CCC(C1)C(C)(C)C2OC(=O)c1ccccc1C(=O)O (configuration not stated) | . | 5% | . | 1% | . | 6% | 54%[activator] | .
CN(c1ccccc1)c1nc(N)c([N+](=O)[O-])c(Nc2ccccc2)n1 | . | -1% | . | -1% | . | 0% | -18% | .
COc1cccc(OC)c1OC(=O)c1ccccc1 | 24% | -4% | . | . | 1%[46.1 µM] | . | -21% | .
Cc1cc(S(=O)(=O)C(CNC(=O)COc2ccc(Cl)cc2)c2cccs2)ccc1F (configuration not stated) | . | . | -6% | . | ? | . | ? | -6.9%
O=C(c1ccccc1)c1ccc(OCC(O)CNCc2ccc(Cl)cc2)cc1 (configuration not stated) | . | -12% | . | -2% | . | -1% | -26% | .
CCCN(C(=O)Cc1coc2cc(OC)ccc12)C1CCS(=O)(=O)C1 (configuration not stated) | 0% | 9% | . | 11% | 20% | . | -2% | .
O=C(CSc1nc2ccc([N+](=O)[O-])cc2[nH]1)NC1CCCCCC1 | ? | -3% | 2% | -22% | -24% | -23% | 5.6µM* | -18%
CN(C)c1ccc(/C=N/O)cc1 | -5%[46.1 µM] | 10% | . | 1% | -6% | 1% | 27% | .
COc1cc(/C=C(/C#N)c2nc3ccccc3[nH]2)ccc1OCC(=O)Nc1ccccc1C | -27% | -9% | -6% | -11% | -14% | -8% | ? | 2.3%
CCc1ccc(/C=C2/Sc3ccccc3N(CC(=O)NCCCN3CCOCC3)C2=O)cc1 | . | -9% | . | -4% | . | 23% | -4% | .
O=C(CNCCO)N1CCc2ccccc21 | 10% | -3% | -3% | 2% | -1% | 11% | -8% | 5.8%
COc1ccccc1NC(=O)C(NC(=O)OC(C)(C)C)C(C)OCc1ccccc1 (configuration not stated) | ? | 7% | 13% | -16% | ? | 2% | -10% | -3.2%
CC(C)(C)c1ccc(C(=O)NC(CC(=O)O)c2ccc(OC3CCCC3)cc2)cc1 (configuration not stated) | . | 8% | . | 2% | . | 17% | 5% | .
COc1ccc(Cl)c(NCCC(=O)O)c1 | -10%&-10% | -6%[3.69 µM] | 5% | -9% | -3% | -1% | -7% | -0.6%
COc1ccc(-n2cnc3cc(C(=O)N4CCOCC4)ccc32)cc1 | . | 0% | . | 9% | . | -5% | 25% | .
CN(C)S(=O)(=O)c1ccc(C(=O)Nc2c(C(=O)Nc3ccc(F)cc3)oc3ccccc23)cc1 | -4%[46.1 µM] | . | -8% | . | -2%[46.1 µM] | . | 36%[activator] | -1.1%
COc1ccc(NC(=O)/C(C#N)=C/c2ncc([N+](=O)[O-])n2C)c(OC)c1 | -6%[46.1 µM] | -12% | . | 1% | -23% | 9% | -6% | .
CN(NC(=O)c1ccccc1Cl)c1ncc(C(F)(F)F)cc1Cl | 2%[46.1 µM] | 4% | . | -1% | 15% | 0% | -9% | .
O=C(NC(Cc1ccccc1)c1nc2ccccc2[nH]1)C1CC(=O)N(c2ccc3c(c2)OCCO3)C1 (configuration not stated) | 18%&18% | 0% | -11% | -4% | 13% | -10% | -23% | 3.4%
CCOC(=O)c1cc(=O)c2ccc(OCC(=O)Nc3ccc(F)cc3)cc2o1 | . | -7% | . | 1% | . | 1% | -18% | .
O=C(N/N=C/c1c(O)n(Cc2ccc(F)cc2)c(=O)[nH]c1=O)c1ccccc1O | -24% | -23% | 3% | 11µM* | -2% | ? | 17% | -11%
CCOC(=O)CN1N=C(c2ccc(Cl)cc2)CCC1=O | 18% | 1% | . | 3% | -1% | 0% | -6% | .
O=C(CN1CCCC1)N1c2ccccc2C=Cc2ccccc21 | -5% | -1% | . | 0% | 27% | -3% | -7% | .
CN(CC(=O)Nc1ccc(S(N)(=O)=O)cc1)c1ccccc1 | ? | 25% | -11% | -5% | 8% | -2% | 3% | 4.9%

Further results
SMILES | MARV entry inh | RE007 growth inh | Cruzain noTriton | SARS PLpro yeast | Lassa entry inh | NS1 inh | 2A StopGo | Cruzain Triton
COc1ccc(C(CCNCc2ccc(N(C)C)cc2)C(C)C)cc1 (configuration not stated) | . | -4% | . | 0% | . | -2% | ? | .
CC(CC(=O)O)n1nnc2ccccc21 (configuration not stated) | 2%[46.1 µM] | 1% | . | 2% | ? | 0% | -4% | .
CS(=O)(=O)Nc1ccc(S(=O)(=O)Nc2nccs2)cc1 | ? | 4% | 3% | 2% | 4% | 0% | 1% | 6.8%
Cc1ccc2c(c1)C(C)(C)[C@]1(C)NC(=O)CCN21 | 5% | -4% | 6% | 8% | 7% | ? | 0% | -3.6%
Cc1ccc(Cc2cc(-c3ccc(C)cc3)n[nH]c2=O)cc1 | ? | -19% | . | -1% | ? | -2% | 10% | .
CCOc1ccc(OCC)c(NC(=O)c2cc(C)nc3c2c(C)nn3-c2cccc(Cl)c2C)c1 | . | . | 4% | . | 16%[46.1 µM] | . | -11% | 0.2%
Cc1cc(C)c(C)c(OCCOCCN2CCOCC2)c1 | -12% | 7% | -14% | 3% | -7% | 1% | 4% | 0.8%
CC1CC(C)CN(CC(=O)N2c3ccccc3CCc3ccccc32)C1 (configuration not stated) | -11% | 8% | -7% | 2% | -1% | 3% | -4% | 11%
COc1cc(NC(=O)CN(C)S(=O)(=O)c2ccc3c(c2)CC(C)N3C(C)=O)cc(OC)c1OC (configuration not stated) | 16%[46.1 µM] | -7% | . | 6% | 0%[46.1 µM] | -1% | -25% | .
COc1ccc(OC)c(N(CC(=O)Nc2ccc3c(c2)OCCO3)S(C)(=O)=O)c1 | -22% | -1% | 3% | -1% | -2% | -8% | -4% | 2.4%
COc1ccccc1C(=O)Nc1ccc2nc(SCC(=O)N(C)c3ccccc3)sc2c1 | ? | . | 8% | . | ? | . | ? | -7.6%
CC12CN3CC(C)(CN(C1)C3c1ccccc1)C2O (configuration not stated) | 10%[46.1 µM] | 10% | . | 1% | 14%[46.1 µM] | 5% | -7% | .
CCCCCCCCNC(=O)c1cccnc1SCC(=O)Nc1ccccc1OC | -13% | -4% | 12% | -2% | ? | 5% | -24% | -0.5%
O=C(c1ccccc1)c1ccc2nc[nH]c2c1 | 18% | 2% | 6% | 4% | 4% | 2% | . | -1.5%
CN(C)C(=O)CN1C(=O)c2cccc3cccc1c23 | . | -25% | . | 3% | . | 5% | 9% | .
Cc1ccc(-n2nnnc2-c2ccccc2Br)cc1 | ? | 6% | . | . | ? | . | -28% | .
O=C1c2cccnc2C(O)N1C1CCCCC1 (configuration not stated) | 8% | -2% | 2% | -1% | 9% | 2% | -16% | 2.7%
COc1ccc2nc(C)cc(Nc3ccccc3O)c2c1 | ? | -19% | . | -3% | -2% | 1% | -22% | .
c1ccc(-c2noc(CC3CCCCC3)n2)nc1 | . | -1% | . | 0% | . | -5% | 48%[activator] | .
COc1ccc(NC(=O)CCSc2nc(-c3ccco3)cc(C(F)(F)F)n2)cc1 | 22%[46.1 µM] | . | -4% | . | -22%[46.1 µM] | . | 3% | -4.0%
CCOC(=O)c1cnc2ccc(OC)cc2c1Nc1ccc(N2CCN(C)CC2)cc1 | ? | -10% | . | 0% | -2% | -2% | -20% | .
COc1cc(NC(=O)C2CCCN2C(=O)C2CCC(C)CC2)cc(OC)c1OC (configuration not stated) | . | -8% | 19% | 19% | . | 8% | -11% | 3.1%
O=C(NC1CCCCC1)c1ccccc1NC(=O)C1CC(=O)N(c2ccc(Cl)cc2)C1 (configuration not stated) | -25% | -13% | ? | 20% | -5% | 12% | -1% | -1.2%
O=C(Nc1cc(F)ccc1F)c1ccc(-n2cncn2)c([N+](=O)[O-])c1 | 29%[46.1 µM] | -2% | . | . | 16% | . | 13% | .
CN1C(=O)C(=Cc2ccc(SC3CCCCC3)o2)C(=O)N(C)C1=O | 5%[46.1 µM] | 20% | . | -15% | 6% | . | ? | .

Next section:
SMILES | MARV entry inh | RE007 growth inh | Cruzain noTriton | SARS PLpro yeast | Lassa entry inh | NS1 inh | 2A StopGo | Cruzain Triton
CCC(OC(=O)CNS(=O)(=O)c1ccccc1)C(=O)c1ccccc1 (configuration not stated) | -2%[46.1 µM] | 12% | . | 0% | 12%[46.1 µM] | -11% | 45%[activator] | .
COc1ccccc1NC(=O)Nc1ccccc1Br | 0% | -10% | . | -1% | -1% | -2% | 12% | .
CCCCN(C)C(=O)CSc1c2c(nc3ccc(Cl)cc13)CCCC2 | ? | . | -11% | . | 23%[46.1 µM] | . | 0% | -14%
Cc1cc(C)cc(Oc2c(C(F)(F)F)oc3cc(OCC(=O)NC4CCCCC4)ccc3c2=O)c1 | -2%[46.1 µM] | . | -8% | . | 14%[46.1 µM] | . | -17% | -1.1%
Cc1cc(Cl)ccc1OCC(=O)Nc1ccccc1N1CCOCC1 | ? | 3% | 0% | -5% | 8.9µM* | -33% | 28µM* | -2.9%
O=C(Cc1ccccc1)NNC(=O)c1cccs1 | -5%[46.1 µM] | 17% | -1% | 9% | 0% | -2% | -1% | -0.2%
Cc1ccc(/C=N/NC(=S)NC(C)C)o1 | 0% | 0% | -17% | 17% | ? | 16% | 22% | -2.8%
O=[N+]([O-])c1cccc(/C=N/n2cnnc2)c1 | 2%[46.1 µM] | -7% | . | 1% | -8%[46.1 µM] | -1% | -8% | .
Cc1cc2ccccc2cc1CN1CCCCC1 | . | 0% | . | -1% | . | 7% | 3% | .
CC1CN2C(c3ccc([N+](=O)[O-])cc3)=CSC2=N1 (configuration not stated) | 18% | -12% | . | 3% | -14% | -5% | 1% | .
COc1ccc([N+](=O)[O-])c2c(=O)ccoc12 | 0% | -2% | 13% | 13% | -3% | 3% | -11% | -0.5%
CCCCNC(=O)OCC(CC)NC(=O)OC(C)C (configuration not stated) | 0% | -1% | -2% | 1% | -3% | 0% | -21% | 2.5%
Nc1cc(=O)[nH]c(SCC(=O)N2N=C(c3ccc(Cl)cc3)CC2c2ccco2)n1 (configuration not stated) | 3%[46.1 µM] | -4% | . | -1% | -2% | 17% | 9% | .
